Vaccinia stage – blocks a specific stage of Vaccinia orthopoxvirus infection, primary screen, cell-based, single point; Vaccinia-infected cells, mCherry/Venus stage reporter fluorescence; stronger effect = lower value; some inactives read as strong as hits; activity change (mCherry), % (no concentration beside the values); 89,000 compounds, 0.01% hits;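 active means mCherry past -33% and 40 or more points under the early reporter, replicates agreeing; inconclusive means past -33% without that gap or agreement; tested in A549 cells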;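 further: scaled between vehicle wells and reference inhibitor wells; 23 nL library stock went into each well; one replicate is shown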
Vaccinia stage Venus – also measured in Vaccinia stage; calls as there; activity change (Venus), %; measured here: Venus reporter, other viral stage;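 negative = less Venus signal; first of two replicates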
* hit, by the source's call; ? = inconclusive; · = no result given. Only part of the results is shown; the hit share may differ from the screen's.

SMILES	Vaccinia stage	Vaccinia stage Venus
C[C@@H]1CN([C@@H](C)CO)C(=O)Cc2cc(NC(=O)NC3CCCCC3)ccc2O[C@@H]1CN(C)Cc1ccc(C(F)(F)F)cc1	-31	-31
C[C@@H]1CN([C@@H](C)CO)C(=O)c2c(c3ccccc3n2C)-c2ccccc2CO[C@@H]1CN(C)Cc1ccc2c(c1)OCCN2C	-23	-27
CO[C@H]1CN(C)C(=O)c2ccc(NC(=O)C3CCCC3)cc2OC[C@H](C)NC[C@H]1C	-8	-2
C[C@H](CO)N1C[C@H](C)[C@H](CN(C)Cc2ccc(C(=O)Nc3ccccc3N)cc2)Oc2ccc(NS(=O)(=O)c3ccc(F)cc3)cc2C1=O	17	6
C[C@@H]1CN([C@H](C)CO)C(=O)c2cc(NC(=O)Cn3cnnn3)ccc2O[C@H]1CN(C)Cc1ccccc1	5	9
Cc1ccc(-c2cnc3c(c2)C(=O)N([C@H](C)CO)C[C@@H](C)[C@@H](CN(C)S(C)(=O)=O)O3)cc1	-10	-10
C[C@H]1CN([C@@H](C)CO)C(=O)c2cc(C#CCc3ccccc3)cnc2O[C@H]1CN(C)Cc1ccccc1	?	·
CCCNC(=O)N(C)C[C@@H]1Oc2cc(C#CC(C)(C)O)ccc2S(=O)(=O)N([C@@H](C)CO)C[C@H]1C	-2	-11
COCC#Cc1ccc2c(c1)O[C@H](CN(C)C(=O)Nc1ccccc1F)[C@H](C)CN([C@H](C)CO)S2(=O)=O	1	1
CO[C@H]1CN(C)C(=O)c2cc(NC(=O)c3cccc(F)c3)ccc2OC[C@H](C)NC[C@@H]1C	-17	-10
C#CCNC(=O)C1=C[C@H](c2ccc(Br)cc2)[C@@H](CCCO)[C@H](OCC)O1	-4	-4
C[C@H](CO)N1C[C@H](C)[C@H](CN(C)S(C)(=O)=O)Oc2c(NC(=O)NC3CCCCC3)cccc2C1=O	2	-2
Cn1cnc(S(=O)(=O)N2C[C@@H](O)COC[C@H]3O[C@H](CC(=O)NC4CCC4)CC[C@@H]32)c1	17	12
CN(C[C@@H]1N[C@H](CO)[C@@H]1c1ccc(-c2cccc(F)c2)cc1)C(=O)C1CCC1	-28	1
C[C@@H]1CN([C@H](C)CO)S(=O)(=O)c2ccc(-c3ccc(C(=O)N(C)C)cc3)cc2O[C@H]1CN(C)C(=O)C1CCCCC1	0	-5

Overlap with the part before: two compounds, followed by the next part.
SMILES	Vaccinia stage	Vaccinia stage Venus
CN(C[C@@H]1N[C@H](CO)[C@@H]1c1ccc(-c2cccc(F)c2)cc1)C(=O)C1CCC1	-28	1
C[C@@H]1CN([C@H](C)CO)S(=O)(=O)c2ccc(-c3ccc(C(=O)N(C)C)cc3)cc2O[C@H]1CN(C)C(=O)C1CCCCC1	0	-5
C[C@@H]1CN([C@@H](C)CO)C(=O)Cc2cc(NS(=O)(=O)c3cn(C)cn3)ccc2O[C@H]1CN(C)Cc1ccc(C(F)(F)F)cc1	-4	-3
C[C@H]1CN([C@@H](C)CO)C(=O)c2cc(NC(=O)C3CCCCC3)ccc2O[C@@H]1CN(C)S(=O)(=O)c1ccc(Cl)cc1	-17	-13
CN1CCN(C(=O)c2cc3c(c(-c4cccc(-c5cccc(F)c5)c4)n2)[C@H](CCO)N(S(=O)C(C)(C)C)C3)CC1 (stereo partly drawn)	-3	4
C/C=C/c1ccc([C@@H]2[C@@H](CO)N(C(=O)CN3CCOCC3)[C@H]2C#N)cc1	24	24
COc1ccc(NC(=O)Nc2ccc3c(c2)CC(=O)N([C@H](C)CO)C[C@H](C)[C@H](CN(C)C(=O)Nc2ccc(F)cc2)O3)cc1	6	5
CCCC#Cc1cnc2c(c1)C(=O)N([C@H](C)CO)C[C@@H](C)[C@@H](CN(C)C(=O)CN1CCOCC1)O2	13	10
N#Cc1ccc(-c2ccc3c(c2)[C@H]2[C@H](CCN2S(=O)(=O)c2cccc(F)c2)[C@@H](CO)N3)cc1	?	·
COc1ccccc1NC(=O)N1CCCCN2[C@H](CO)[C@H](c3ccc(-c4ccc(C)cc4)cc3)[C@H]2C1	?	·
C[C@@H]1CN([C@H](C)CO)C(=O)c2cc(NC(=O)Nc3ccc4c(c3)OCO4)ccc2O[C@@H](C)CCCCO[C@@H]1CN(C)Cc1ccc(C(=O)O)cc1	10	4
C[C@@H]1CCCCO[C@H](CN(C)C(=O)Cc2ccccc2)[C@@H](C)CN([C@H](C)CO)C(=O)c2cc(N(C)C)ccc2O1	5	2
COc1cccc(-c2ccc([C@H]3[C@@H](CO)N4CCCCN(C(=O)c5ccc6c(c5)OCO6)C[C@@H]34)cc2)c1	4	-9
COc1ccc(CN(C)C[C@H]2Oc3ccc(NS(C)(=O)=O)cc3C(=O)N([C@@H](C)CO)C[C@H]2C)cc1	19	3
CN1CCN(C(=O)C[C@H]2CC[C@H]3[C@H](COc4ccc(NC(=O)C5CCOCC5)cc4C(=O)N3C)O2)CC1	1	4
C[C@H](CO)N1C[C@H](C)[C@H](CN(C)C(=O)CC2CC2)Oc2cc(-c3cccnc3)ccc2S1(=O)=O	13	5
O=C(C[C@@H]1CC[C@H]2[C@@H](COC[C@@H](O)CN2Cc2ccccc2F)O1)N1CCc2ccccc2C1	-24	-16

Given as comma-separated lines: part of the list above.
mol,Vaccinia stage,Vaccinia stage Venus
C[C@@H]1CN([C@@H](C)CO)C(=O)Cc2cc(NS(=O)(=O)c3cn(C)cn3)ccc2O[C@H]1CN(C)Cc1ccc(C(F)(F)F)cc1,-4,-3
C[C@H](CO)N1C[C@H](C)[C@H](CN(C)C(=O)CC2CC2)Oc2cc(-c3cccnc3)ccc2S1(=O)=O,13,5
CN1CCN(C(=O)c2cc3c(c(-c4cccc(-c5cccc(F)c5)c4)n2)[C@H](CCO)N(S(=O)C(C)(C)C)C3)CC1 (stereo partly drawn),-3,4
CN1CCN(C(=O)C[C@H]2CC[C@H]3[C@H](COc4ccc(NC(=O)C5CCOCC5)cc4C(=O)N3C)O2)CC1,1,4

More structures follow:
SMILES	Vaccinia stage	Vaccinia stage Venus
C[C@H](CO)N1C[C@H](C)[C@@H](CN(C)C(=O)C2CCCCC2)Oc2cc(C#Cc3ccncc3)ccc2S1(=O)=O	?	·
C[C@H]1CN([C@@H](C)CO)C(=O)Cc2cc(NC(=O)Nc3ccccc3)ccc2O[C@H]1CN(C)Cc1ccc(Oc2ccccc2)cc1	?	·
C/C=C/c1ccc2c(c1)O[C@@H](CN(C)Cc1ccncc1)[C@@H](C)CN([C@@H](C)CO)S2(=O)=O	-3	-5
Cc1ccc(S(=O)(=O)Nc2ccc3c(c2)C(=O)N([C@@H](C)CO)C[C@H](C)[C@@H](CN(C)C(=O)CCCN(C)C)OCCCC[C@H](C)O3)cc1	3	-5
CO[C@H]1CN(C)C(=O)c2ccc(NC(=O)Nc3cccc(F)c3)cc2OC[C@H](C)NC[C@H]1C	-14	-2
C[C@H]1CN([C@@H](C)CO)C(=O)CCCn2nncc2CO[C@@H]1CN(C)C(=O)Nc1ccc2c(c1)OCO2	15	12
C[C@@H]1CN([C@H](C)CO)C(=O)c2cc(NS(=O)(=O)c3ccccc3)ccc2O[C@@H](C)CCCCO[C@@H]1CN(C)CC1CC1	0	-6
Cc1noc(C)c1S(=O)(=O)Nc1ccc2c(c1)CC(=O)N([C@H](C)CO)C[C@H](C)[C@@H](CN(C)Cc1ccc(C(F)(F)F)cc1)O2	?	·
CN(C)C(=O)[C@H]1[C@H](CO)[C@H]2Cn3c(ccc(-c4ccccc4F)c3=O)[C@@H]1N2C(=O)c1ccncc1	21	25
O=C(NCC[C@H]1CC[C@@H](NC(=O)c2cnccn2)[C@@H](CO)O1)Nc1ccc(Cl)cc1	10	5
CCC(=O)N(C)C[C@@H]1Oc2ncc(-c3ccccc3C)cc2C(=O)N([C@@H](C)CO)C[C@@H]1C	31	6
C[C@H](CO)N1C[C@H](C)[C@H](CN(C)Cc2ccncc2)Oc2ccc(NC(=O)Nc3ccccc3)cc2C1=O	3	8
O=C(C[C@H]1C[C@H]2c3cc(NS(=O)(=O)c4ccccc4)ccc3O[C@H]2[C@@H](CO)O1)N1CCOCC1	12	15
CC(C)NC(=O)Nc1cccc2c1O[C@H](CN(C)C(=O)NC1CCCCC1)[C@H](C)CN([C@@H](C)CO)C2=O	-7	-12
O=C(C[C@H]1CC[C@H]2[C@@H](COC[C@H](O)CN2Cc2ccncc2)O1)NCc1ccncc1	12	6
COc1ccc(CN(C)C[C@@H]2OCCCC[C@H](C)Oc3ccc(NC(=O)c4ccccc4)cc3C(=O)N([C@H](C)CO)C[C@@H]2C)cc1	?	·
C[C@@H]1CN([C@@H](C)CO)C(=O)c2cccc(NC(=O)c3ccc(-c4nccs4)cc3)c2O[C@H]1CN(C)Cc1ccccc1	?	·
Cc1ccc(S(=O)(=O)N(C)C[C@H]2Oc3c(NC(=O)C4CCOCC4)cccc3C(=O)N([C@@H](C)CO)C[C@H]2C)cc1	6	4
CS(=O)(=O)Nc1ccc2c(c1)[C@H]1C[C@@H](CC(=O)NCC(F)(F)F)O[C@@H](CO)[C@H]1O2	8	5
C[C@@H]1CN([C@H](C)CO)C(=O)c2cc(NC(=O)CCC(F)(F)F)ccc2O[C@H]1CN(C)Cc1ccc2c(c1)OCO2	-6	4
O=C(c1cccnc1)N1C[C@H]2[C@@H](c3ccccc31)[C@@H](CO)N2C(=O)Nc1ccccc1	9	16
N#C[C@H]1[C@@H](c2ccc(C#Cc3ccccc3F)cc2)[C@@H](CO)N1C(=O)C1CCOCC1	3	10
COc1ccc(NC(=O)N(C)C[C@@H]2Oc3ccc(NS(C)(=O)=O)cc3CC(=O)N([C@H](C)CO)C[C@H]2C)cc1	-1	-6
O=C(C[C@@H]1CC[C@H]2[C@@H](COC[C@@H](O)CN2Cc2cc(F)ccc2F)O1)N[C@@H]1CCN(Cc2ccccc2)C1	-20	-16
C[C@H]1CN([C@@H](C)CO)C(=O)c2cccc(N(C)C)c2O[C@H]1CN(C)C	8	-1
C[C@H]1CN([C@@H](C)CO)C(=O)c2cc(-c3cncnc3)cnc2O[C@@H]1CN(C)C(=O)c1cccc(F)c1	10	2
COc1ccc(NC(=O)Nc2ccc3c(c2)C(=O)N([C@@H](C)CO)C[C@H](C)[C@@H](CN(C)Cc2ccccc2)O3)cc1	-1	4
COc1ccc(S(=O)(=O)Nc2ccc3c(c2)C(=O)N([C@@H](C)CO)C[C@H](C)[C@@H](CN(C)C(=O)Nc2c(C)noc2C)O3)cc1	4	-1
Cc1ccc(S(=O)(=O)N[C@@H]2CC[C@@H](CC(=O)NCCN3CCCCC3)O[C@H]2CO)cc1	8	2
CO[C@H]1CN(C)C(=O)c2cc(NC(=O)C3CCCC3)ccc2OC[C@H](C)N(CC2CC2)C[C@@H]1C	2	8
COc1ccccc1C#Cc1ccc2c(c1)[C@H]1[C@H](CCN1S(=O)(=O)c1cn(C)cn1)[C@@H](CO)N2	3	4
C[C@@H]1CN([C@H](C)CO)C(=O)c2cc(-c3cccnc3)cnc2O[C@H]1CN(C)C(=O)c1cccc(F)c1	0	1
CN1C(=O)c2cc(NC(=O)NCc3ccccc3)ccc2OC[C@@H]2O[C@@H](CC(=O)O)CC[C@H]21	9	9
C[C@H]1CN([C@@H](C)CO)S(=O)(=O)c2ccc(/C=C/c3ccccc3)cc2O[C@H]1CN(C)C(=O)NC1CCCC1	?	·
Cc1ccccc1S(=O)(=O)N1C[C@H](O)COC[C@H]2O[C@H](CC(=O)N3CCCCC3)CC[C@@H]21	13	4
C/C=C/c1ccc2c(c1)O[C@H](CN(C)C(=O)Cc1ccccc1)[C@@H](C)CN([C@H](C)CO)S2(=O)=O	-9	-7
Cc1noc(C)c1NC(=O)Nc1cccc2c1O[C@@H](CN(C)Cc1ccncc1)[C@@H](C)CN([C@H](C)CO)C2=O	28	10
O=C(C[C@@H]1C[C@@H]2c3cc(NC(=O)Nc4ccccc4)ccc3O[C@@H]2[C@H](CO)O1)NC1CCCC1	9	9
CCCNC(=O)[C@H]1[C@H](CO)[C@H]2Cn3c(ccc(C4=CCCC4)c3=O)[C@H]2N1CCC(F)(F)F	-5	7
C[C@@H]1CCCCO[C@@H](CN(C)Cc2ccc(C(=O)O)cc2)[C@H](C)CN([C@@H](C)CO)C(=O)c2cc(NC(=O)Nc3ccccc3)ccc2O1	11	4
Cc1noc(C)c1NC(=O)N(C)C[C@H]1Oc2cc(C#CCC(C)C)ccc2S(=O)(=O)N([C@H](C)CO)C[C@H]1C	?	·
C[C@@H]1CN([C@@H](C)CO)C(=O)CCCn2cc(nn2)CO[C@H]1CN(C)C(=O)Nc1ccc(C(C)(C)C)cc1	2	8
CN(C)C(=O)C[C@@H]1C[C@@H]2c3cc(NC(=O)Nc4ccc(F)cc4)ccc3O[C@@H]2[C@@H](CO)O1	12	17
COc1ccc(S(=O)(=O)Nc2ccc3c(c2)C(=O)N([C@H](C)CO)C[C@@H](C)[C@H](CN(C)C(=O)NC2CCCCC2)O3)cc1	25	19
CCC(=O)N1CC(=O)N2[C@H](CO)[C@@H](c3ccc(C#CC4CCCCC4)cc3)[C@H]2C1	-4	-38

Arranged by SMILES length (rising): three of the compounds above
SMILES	Vaccinia stage	Vaccinia stage Venus
CCC(=O)N1CC(=O)N2[C@H](CO)[C@@H](c3ccc(C#CC4CCCCC4)cc3)[C@H]2C1	-4	-38
Cc1ccccc1S(=O)(=O)N1C[C@H](O)COC[C@H]2O[C@H](CC(=O)N3CCCCC3)CC[C@@H]21	13	4
COc1ccccc1C#Cc1ccc2c(c1)[C@H]1[C@H](CCN1S(=O)(=O)c1cn(C)cn1)[C@@H](CO)N2	3	4

(further entries)
SMILES	Vaccinia stage	Vaccinia stage Venus
O=C(C[C@H]1CC[C@@H](NC(=O)c2cnccn2)[C@@H](CO)O1)NCc1ccccc1F	14	10
O=C(O)[C@@H]1[C@@H](CO)[C@@H]2Cn3c(ccc(-c4ccncc4)c3=O)[C@H]1N2C(=O)C1CCCCC1	4	2
C[C@@H]1CN([C@H](C)CO)C(=O)c2cc(C3=CCCC3)cnc2O[C@H]1CN(C)Cc1cccnc1	-9	-12
C[C@@H]1CN([C@H](C)CO)C(=O)c2cc(NC(=O)c3ccccc3)ccc2O[C@@H](C)CCCCO[C@@H]1CN(C)S(=O)(=O)c1ccccc1	3	4

Screens deposited in PubChem by Broad Institute.
